Source: PubChem BioAssay
KCNQ2 block = KCNQ2 potassium channel inhibitors, primary screen, cell-based, CHO-K1, FluxOR thallium flux, B-score (AID 2156); O88943; 20 min; hits give low values; only compounds with negative scores are shown here; some inactives read as strong as hits; B-score at 10 µM; actives 1.1% (n = 310,000);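 active means fluorescence ratio B-score at most minus 3 library SDs, with starting brightness B-score within 2 library SDs, cut at about -5.5 in these data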
Target sequence (O88943 whole entry, looked up): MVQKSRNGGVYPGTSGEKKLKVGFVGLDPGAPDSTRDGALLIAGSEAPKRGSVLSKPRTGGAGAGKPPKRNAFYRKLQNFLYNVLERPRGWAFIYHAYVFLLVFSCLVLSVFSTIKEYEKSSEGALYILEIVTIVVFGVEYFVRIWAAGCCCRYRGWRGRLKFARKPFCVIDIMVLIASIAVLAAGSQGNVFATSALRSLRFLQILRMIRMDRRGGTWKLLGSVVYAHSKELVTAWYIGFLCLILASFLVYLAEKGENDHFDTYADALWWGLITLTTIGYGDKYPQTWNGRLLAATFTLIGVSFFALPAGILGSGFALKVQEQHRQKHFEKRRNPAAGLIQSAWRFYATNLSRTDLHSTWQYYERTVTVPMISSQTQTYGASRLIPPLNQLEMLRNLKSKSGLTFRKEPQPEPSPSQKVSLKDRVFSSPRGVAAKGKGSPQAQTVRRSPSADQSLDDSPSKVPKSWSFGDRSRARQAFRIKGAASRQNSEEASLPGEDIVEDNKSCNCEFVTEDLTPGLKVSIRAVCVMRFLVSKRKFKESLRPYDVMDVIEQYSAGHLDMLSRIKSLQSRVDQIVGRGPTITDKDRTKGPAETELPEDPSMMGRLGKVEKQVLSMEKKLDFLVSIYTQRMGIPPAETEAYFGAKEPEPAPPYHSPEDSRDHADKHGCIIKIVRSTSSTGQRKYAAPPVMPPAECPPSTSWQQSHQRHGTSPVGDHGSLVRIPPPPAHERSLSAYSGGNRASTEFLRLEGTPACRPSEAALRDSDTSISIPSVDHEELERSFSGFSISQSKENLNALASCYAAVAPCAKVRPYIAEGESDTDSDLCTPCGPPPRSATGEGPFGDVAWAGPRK
KCNQ2 block baseline = also measured in KCNQ2 block; calls as there; B-score; measured here: initial fluorescence intensity artifact check;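 brightness before thallium and not channel activity; 0 = typical well and far values either way flag optical interference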
* marks the source's active call; other numbers are inactive results; i = inactive. A portion of the library. The share of hits here may be higher or lower than overall.

#	KCNQ2 block	KCNQ2 block baseline	canonical_smiles
1	i	-2.06	O=C(CN(c1ccccc1)S(=O)(=O)c1ccccc1)Nc1ccc(F)cc1
2	i	0.11	CCOC(=O)N1CCN(S(=O)(=O)N2CCCC(C(=O)NCc3cccc(OC)c3)C2)CC1 (stereo not drawn)
3	i	-1.66	O=C(COC(=O)c1ccc2c(c1)OCCO2)Nc1cccc(S(=O)(=O)N2CCOCC2)c1
4	i	0.95	COc1ccccc1N1CCN(CC(O)COCc2cccs2)CC1 (stereo not drawn)
5	i	-1.18	NS(=O)(=O)c1ccc(CNC(=O)c2cc(-c3ccccc3)nc3ccccc23)cc1
6	i	-0.46	COc1ccc(OC)c(N=Cc2c(O)[nH]c3ccccc23)c1
7	i	-0.39	Cc1ccc(-c2nn3c(C)nnc3s2)cc1NC(=O)c1ccc(OC(C)C)cc1
8	i	0.9	Cc1ccc(NC(=O)c2cccc(C(=O)OC(C)C)n2)c(Br)c1
9	i	-0.84	CC(C)c1nc2c(s1)CCc1onc(-c3ccc(Cl)cc3)c1-2
10	i	-0.59	O=C1CC(c2cccc(Oc3ccccc3)c2)NC(=O)N1 (stereo not drawn)
11	-7.41*	0.23*	N#C/C(=C\C=C\c1ccccc1)C(=O)Nc1ccccc1
12	i	-1.15	COc1cc(-c2nnc(COc3ccc(Cl)cc3C)o2)cc(OC)c1OC
13	i	-1.03	COc1ccc(O)c(-c2cc(-c3ccccc3Cl)[nH]n2)c1
14	i	1.4	COc1ccccc1C(=O)NCC(=O)OCC(=O)Nc1cccc(S(=O)(=O)N(C)C)c1
15	i	0.5	CN(Cc1nc(-c2cnccn2)no1)CC1(c2ccccc2)CC1(C)C (stereo not drawn)
16	i	-1.36	CC(OC(=O)CCC(=O)N1CCN(S(=O)(=O)c2ccc3ccccc3c2)CC1)C(=O)NC(N)=O (stereo not drawn)
17	i	2.16	COc1ccccc1OCC(=O)O
18	i	-0.3	c1ccc(-c2nc3cnccn3c2Nc2ccc3c(c2)OCCO3)cc1
19	i	0.36	CC1CCN(CCCn2c(=S)[nH]c3c(sc4ccccc43)c2=O)CC1
20	i	-0.39	O=C(COC(=O)c1cc(=O)[nH]c2ccccc12)Nc1nccs1
21	i	0.37	NC(=O)c1ccc(NC(=O)COC(=O)CCSc2ccccc2)cc1
22	i	-0.84	CCCc1c(C)c2c(C)[nH]nc2oc1=O
23	i	0.36	COC(=O)c1ccc(COC(=O)CNS(=O)(=O)c2ccccc2)cc1
24	i	1.76	O=C(CCl)NNc1cccc(Cl)n1
25	i	-0.26	CSc1ccccc1OCc1cc(C(=O)N2CCN(C3CCCC3)C(=O)C2)no1
26	i	0.01	CC(=O)C1=NOC2C(=O)N(c3ccccc3)C(=O)C12 (stereo not drawn)
27	i	0.54	COC(=O)c1ccc(N/C(=N/S(=O)(=O)c2ccccc2)c2ccccc2)cc1
28	i	1.18	O=C(NCc1ccc2c(c1)OCO2)c1ccccc1
29	i	-0.24	Cc1cc(C)nc(SCc2ccc(C(=O)N/N=C/c3ccco3)cc2)n1
30	i	2.07	CC(C)(C)c1cc(NC(=O)C2CCCO2)no1 (stereo not drawn)
31	i	0.29	CC(C)(C)c1ccc(OCCC(=O)OCC(=O)N2c3ccccc3NC(=O)C2(C)C)cc1
32	i	-1.67	C=C(C)c1cccc(C(C)(C)NC(=O)NC(c2ccccc2)c2ccc(OC)cc2)c1 (stereo not drawn)
33	i	1.55	COc1ccc(CNC(=O)c2cc3c(=O)n4ccccc4nc3n(Cc3cccnc3)c2=N)cc1
34	i	1.56	COc1ccc(Cl)cc1N1C(=O)[C@@H]2C(c3cccc(OC)c3OC)=NO[C@@H]2C1=O
35	i	-1.57	COc1cccc(NC(=O)C2CCN(Cc3cnn(-c4ccccc4)c3-n3cccc3)CC2)c1
36	i	0.01	CCOC(=O)c1nc(Nc2ccc(C(C)=O)cc2)c2ccccc2n1
37	i	0.22	Cc1ccc(-c2ccc(/C=C/C(=O)c3ccccc3)o2)cc1
38	i	0.09	Cc1ccc(S(=O)(=O)N(CC(O)CN2CCOCC2)c2cc(Cl)ccc2Cl)cc1 (stereo not drawn)
39	i	-0.53	O=C(CCc1nnc(C2CCCCC2)o1)N1CCN(C2CCCCC2)CC1
40	i	-0.82	O=C(/C=C/c1cccc([N+](=O)[O-])c1)N1CCN(S(=O)(=O)c2cccs2)CC1
41	i	-2.18	O=C(Oc1ccc2c(=O)c(Cl)coc2c1)c1cccnc1
42	i	-0.13	COc1ccc(/C=N/NC(=O)c2ccc3ccccc3c2)cc1OS(=O)(=O)c1ccc(NC(C)=O)cc1
43	i	1.11	CCCC(=O)Nc1ccc(C=C(C(C)=O)C(C)=O)cc1
44	i	-0.01	COC(=O)C1=CN(Cc2cccs2)C=C(C(=O)OC)C1c1cccc(Cl)c1
45	i	0.3	O=C(Nc1cccc(Cl)c1)N1CCC(CO)(CCOc2ccccc2)CC1
46	i	0.25	Cc1ccc(S(=O)(=O)N/N=C\c2ccc([N+](=O)[O-])o2)cc1
47	i	-1.18	COCCN1C(=O)c2oc3cc(C)c(C)cc3c(=O)c2C1c1cccc(O)c1 (stereo not drawn)
48	i	2.47	CCOc1c(Br)cc(C(=O)NCCCn2ccnc2)cc1OC
49	i	0.15	Nc1ccc2nn(-c3ccc(F)cc3)nc2c1
50	i	-1.42	CCCC(=O)N1CCN(c2ccc(NC(=O)c3cccs3)cc2Cl)CC1

Next part
#	KCNQ2 block	KCNQ2 block baseline	canonical_smiles
51	i	1.07	O=C1c2oc3ccc(Br)cc3c(=O)c2C(c2cccc(F)c2)N1CCO (stereo not drawn)
52	i	-0.87	Cc1ccc(CCNS(=O)(=O)c2ccc(C)cc2)cc1
53	i	-0.06	CC1=NN(c2ccccc2)C(=O)C1N=Nc1cccc(O)c1 (stereo not drawn)
54	i	0.05	COc1ccc(CCC(=O)Nc2ncc(C)s2)cc1
55	i	0.77	O=C(NCc1ccccn1)C12CC3CC(CC(C3)C1)C2
56	i	-0.27	O=C(OCCCCN1C(=O)c2ccccc2C1=O)c1n[nH]c2ccccc12
57	i	-0.26	CCn1nc(C(=O)Nc2ccccc2C)c(Cl)c1Cl
58	i	0.04	O=C1OC(C(=O)Nc2ccccc2)Cc2ccccc21 (stereo not drawn)
59	i	1.76	COc1ccc(S(=O)(=O)Nc2ccccc2C(=O)OC2CCCN(C)C2)cc1OC (stereo not drawn)
60	i	-1.74	COc1ccc(C2C(C(C)=O)=C(O)C(=O)N2c2ccc(Br)cn2)cc1 (stereo not drawn)

17 entries from above, reformatted:
#	SMILES	KCNQ2 block	KCNQ2 block baseline
42	COc1ccc(/C=N/NC(=O)c2ccc3ccccc3c2)cc1OS(=O)(=O)c1ccc(NC(C)=O)cc1	i	-0.13
43	CCCC(=O)Nc1ccc(C=C(C(C)=O)C(C)=O)cc1	i	1.11
44	COC(=O)C1=CN(Cc2cccs2)C=C(C(=O)OC)C1c1cccc(Cl)c1	i	-0.01
45	O=C(Nc1cccc(Cl)c1)N1CCC(CO)(CCOc2ccccc2)CC1	i	0.3
46	Cc1ccc(S(=O)(=O)N/N=C\c2ccc([N+](=O)[O-])o2)cc1	i	0.25
47	COCCN1C(=O)c2oc3cc(C)c(C)cc3c(=O)c2C1c1cccc(O)c1 (stereo not drawn)	i	-1.18
48	CCOc1c(Br)cc(C(=O)NCCCn2ccnc2)cc1OC	i	2.47
49	Nc1ccc2nn(-c3ccc(F)cc3)nc2c1	i	0.15
50	CCCC(=O)N1CCN(c2ccc(NC(=O)c3cccs3)cc2Cl)CC1	i	-1.42
51	O=C1c2oc3ccc(Br)cc3c(=O)c2C(c2cccc(F)c2)N1CCO (stereo not drawn)	i	1.07
52	Cc1ccc(CCNS(=O)(=O)c2ccc(C)cc2)cc1	i	-0.87
53	CC1=NN(c2ccccc2)C(=O)C1N=Nc1cccc(O)c1 (stereo not drawn)	i	-0.06
54	COc1ccc(CCC(=O)Nc2ncc(C)s2)cc1	i	0.05
55	O=C(NCc1ccccn1)C12CC3CC(CC(C3)C1)C2	i	0.77
56	O=C(OCCCCN1C(=O)c2ccccc2C1=O)c1n[nH]c2ccccc12	i	-0.27
57	CCn1nc(C(=O)Nc2ccccc2C)c(Cl)c1Cl	i	-0.26
58	O=C1OC(C(=O)Nc2ccccc2)Cc2ccccc21 (stereo not drawn)	i	0.04

(next part)
#	KCNQ2 block	KCNQ2 block baseline	canonical_smiles
61	i	-1.43	CCOC(=O)c1c(NC(=O)CSc2nnc(-c3c[nH]c4ccccc34)n2C)sc2c1CCCC2
62	i	-1.1	CN1CCN(Cc2c(C#N)c3ccccc3n2C)CC1
63	i	0.17	CCOC(=O)c1cc2c(C)n(-c3ccc(OCC)cc3)c(C)c2ccc1=O
64	i	-1.07	Cc1ccc2c(c1)N(C(=O)CCC(=O)NCc1ccccc1)CC(C)O2 (stereo not drawn)
65	i	0.87	CCOc1ccc(C(=O)NC(C)C2COc3ccccc3O2)cc1 (stereo not drawn)
66	i	0.99	Cc1ccc(-c2nc(CS(=O)(=O)CC(=O)NCc3ccc4c(c3)OCO4)c(C)o2)cc1
67	i	-0.06	N#CCCn1cc(C(=O)N2CCCCC2)c(-c2ccc([N+](=O)[O-])cc2)n1
68	i	-0.19	O=C(OCc1cccc(C(F)(F)F)c1)c1ccc[nH]c1=O
69	i	1.32	O=C(c1ccco1)N1CCN(C(c2ccccc2)c2nnnn2C2CCCC2)CC1 (stereo not drawn)
70	i	0.97	Cc1ccccc1NC(=O)CSc1n[nH]c(-c2ccccn2)n1
71	i	0.58	COc1ccc(N2CCN(C(=O)CSc3nnc(NC(=O)C4CCC4)s3)CC2)cc1
72	i	-0.67	CC(=O)c1ccc(NC(=O)c2cc(-c3cccs3)on2)cc1
73	i	1.41	CCOC(=O)CC(=O)CSc1ncnc2c1nnn2-c1ccc(OC)cc1
74	i	1.14	Cc1ccc(CN2CC(C(=O)Nc3ccc(S(=O)(=O)N4CCCCC4)cc3)CC2=O)cc1 (stereo not drawn)
75	i	0.08	CC(CO)N1CCS(=O)(=O)CC1 (stereo not drawn)
76	i	-0.89	CC(C)N(CCNC(=O)c1ccc(OCC2CCCO2)cc1)C(C)C (stereo not drawn)
77	i	-0.13	COc1ccc(C2SCC(=O)N2CCCN(C)C)cc1 (stereo not drawn)
78	i	2.67	CC(=O)Nc1cccc2c1C(=O)N(c1ccc(OC(C)=O)cc1)C2=O
79	i	1.73	CCCN1CCN(C(=O)CN2C(=O)CC(C)(C)S(=O)(=O)c3ccccc32)CC1
80	i	-0.37	CS(=O)(=O)N(CC(=O)Nc1cccnc1)c1ccc2c(c1)OCO2
81	i	-0.02	O/N=C/c1ccccc1OCc1ccccc1Cl
82	i	-0.09	Cc1c(C)c2c(OCC(=O)NC3CC3)cc3c(c2oc1=O)CCC(C)(C)O3
83	i	0.08	O=C(c1c[nH]c(C(=O)C(Cl)(Cl)Cl)c1)c1ccccc1F
84	i	1.32	CCOC(=O)c1cn2cccnc2n1
85	i	-1.47	COc1cc2c(cc1OC)-c1cc(NC3CCCCCCC3)nc(=O)n1CC2
86	i	-0.68	CCOC(=O)C1=C(C)OC(N)=C(C#N)C1c1cc2ccccc2nc1N1CCCCC1 (stereo not drawn)
87	i	0.39	O=C(Cn1nc2n(c1=O)-c1ccccc1SC2)N/N=C/c1ccncc1
88	i	0.1	COCCNC(=S)N1CCN(c2nc(-c3ccccc3)cs2)CC1
89	i	-0.17	COC(=O)c1cc(S(=O)(=O)NCC2CCN(Cc3cc(C)ccc3C)CC2)cn1C
90	i	2.34	N#CCSc1nccc(-c2cc(Cl)sc2Cl)n1
91	i	1.14	COc1ccc(-c2nc(CSCC(=O)N3CCc4ccccc4C3)c(C)o2)cc1OC
92	i	0.84	Cc1ccc2nc3c(cc2c1)c(NC(=O)c1ccco1)nn3CC(C)C
93	i	0.36	O=C(NCc1ccccc1C(F)(F)F)C1CC(c2cccc(F)c2)=NO1 (stereo not drawn)
94	i	2.23	CCc1c(-c2ccccc2)nc2sc3c(c2c1N)CCCC3
95	i	0.69	O=C(c1ccccc1Br)N1CCn2c1nc1ccccc12
96	i	-1.88	COc1ccc(-c2cc3c(=O)n(CC(=O)NCCCc4ccccc4)ncn3n2)cc1
97	i	0.68	OCC[C@H]1C[C@@H](O)[C@H](O)[C@]2(CCCO2)O1
98	i	-1.55	OCC1(Cc2ccccc2)CCCN(C2CCCC2)C1 (stereo not drawn)
99	i	1.76	CCCCCOc1ccc(NC(=O)CCCC(=O)O)cc1
100	i	-1.42	O=C(COc1ccc(Cl)cc1Cl)N/N=C/c1ccccn1
101	-6.13*	0.28*	Cc1nc(N2CCN(c3ccccc3)CC2)nc2c1C(=O)CC(c1ccccc1)C2 (stereo not drawn)
102	i	0.16	Cc1cc(SCC(=O)N/N=C/c2ccc(O)cc2O)c(C)cc1Br
103	i	-2.59	Cc1ccc(C)c(NC(=O)CSc2ccc(-c3ccco3)nn2)c1
104	i	-1.09	CC(C)CCN(C(=O)CNC(=O)c1cccs1)C(C(=O)NC1CCCC1)c1ccncc1 (stereo not drawn)
105	i	0.56	O=C(N/N=C/c1ccccc1[N+](=O)[O-])c1ccc(CN2CCOCC2)cc1
106	i	1.05	CCN(CCO)c1ncnc2c1sc1nc(CC(C)C)c3c(c12)CC(C)(C)OC3
107	i	1.45	CN1C(=O)[C@H]2[C@@H](/C=C/c3ccccc3)N3C(=O)CN(CCO)C(=O)[C@@]3(Cc3ccccc3)[C@H]2C1=O
108	-6.94*	0.45*	O=C(COC(=O)c1ccc(Sc2ccccc2)c([N+](=O)[O-])c1)NC1CCCc2ccccc21 (stereo not drawn)
109	i	-0.45	COc1ccc(NC(=O)C2C3C=CC(O3)C2C(=O)NCc2cccnc2)cc1 (stereo not drawn)
110	i	2.85	O=C(Nc1ccc(-c2nc3ccccc3s2)c(O)c1)C1=COCCO1

The listing continues:
#	KCNQ2 block	KCNQ2 block baseline	canonical_smiles
111	i	0.58	Cc1cc(-c2nn(-c3ccccc3F)cc2CN2CCN(c3ccccn3)CC2)c(C)s1
112	i	1.64	COc1ccc2nc(SCC(=O)NCc3ccc4c(c3)OCO4)[nH]c2c1
113	i	-0.01	CCOc1ccccc1NC(=S)NCCc1ccc(F)cc1
114	i	0.04	O=c1[nH]c2ccccc2c(O)c1-c1cc2ccccc2oc1=O
115	i	-0.63	CC(C)(C)NC(=O)CCN(/N=C/c1ccncc1)C1=NS(=O)(=O)c2ccccc21
116	i	0.61	S=C(NCCN1CCOCC1)N/N=C/c1cccs1
